PrP 5UTR inh: inhibition of PrP 5' UTR reporter expression. inhibition, % (concentration not given with the values). cell-based PrP 5' UTR mRNA reporter, plate reader. AID 488862, 2010. 340,000 compounds, 0.35% hits;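 active = every replicate at 50% or more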;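 also: 0 = median of the neutral control wells; tested in H4 reporter cells; numbers are from one replicate; inactives centre near -14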
Autofluor counter: flagged as autofluorescent in microsphere protease counterscreen; compound autofluorescence counterscreen, microsphere flow cytometry; active compounds read high; fluorescence intensity (test concentration not listed); 360,000 compounds, 3.1% hits; AID 624483;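 active = at least 3 SD above the mean of all compounds, about 16000 in these data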;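 also: 100 nL of 1 mM stock went into each well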
* = called active by the depositor. Some of the compounds tested, so the mix of outcomes need not match the whole.

cpd | Molecule | PrP 5UTR inh | Autofluor counter
1 | CCC1=C2CC[C@H]3C(=O)N(c4ccccc4)C(=O)[C@H]3[C@H]2[C@@]2(C)C(=NCC(=O)OC)OC(=O)N2C1=O | -13.4 | 2912
2 | CN(N=O)c1ccc(C=C2C=Cc3ccccc32)cc1 | -150.9 | 3719
3 | C=CC[C@@H](CC(=O)N[C@@H](CO)Cc1ccccc1)C(=O)N[C@H](COC(=O)[C@@H](CC=C)Cc1ccc(F)cc1)C(C)(C)C | -11.6 | 3513
4 | C=CC[C@H](CC(=O)N(CCO)Cc1ccccc1)C(=O)N[C@@H](COC(=O)[C@H](CC=C)CC(=O)OC(C)(C)C)Cc1c[nH]c2ccccc12 | -7.9 | 2852
5 | C[C@@]12C(=O)N(Cc3ccco3)CC(=O)N1[C@H]1c3ccccc3OC[C@@H]1[C@@H]2c1ccccc1 | -14.1 | 3676
6 | CC[C@@H](CO)NC(=O)[C@@H]1C=C2c3cccc4[nH]cc(c34)C[C@H]2N(C)C1 | 2.9 | 2566
7 | CC(C)n1c(CNC(=O)c2ccccc2F)nnc1SCC(=O)c1ccc(F)cc1 | -11.3 | 3445
8 | CCN1C(=O)[C@H]2[C@@H](c3ccc(-c4cc(C(C)=O)cs4)cc3)N3CCCC[C@@]3(C(=O)OC)[C@H]2C1=O | -1.5 | 3057
9 | C=CC[C@H](CC(=O)NCCO)C(=O)N[C@@H](COC(=O)[C@@H](CC=C)Cc1ccc(F)cc1)Cc1c[nH]c2ccccc12 | -16.9 | 3954
10 | C[C@H](CO)N1C[C@H](C)[C@@H](CN(C)Cc2ccc(C(=O)Nc3ccccc3N)cc2)Oc2c(NC(=O)C3CCCCC3)cccc2C1=O | -13.6 | 3791
11 | CC1=C(O)C(=O)C(C2=C(O)C(=O)C(C)=C(O)C2=O)=C(O)C1=O | 8.8 | 5712
12 | CCN(CC)S(=O)(=O)c1cccc(C(=O)N/N=C/c2ccc(O)c(O)c2O)c1 | -5.1 | 1930
13 | CN1C[C@@H]2[C@@H]3C(=O)N(Cc4ccccc4)C(=O)[C@@H]3[C@](C)(C1=O)N2C(=O)c1ccc(F)cc1 | -25.4 | 4119
14 | CCCCN1CC(COCc2ccccc2)Oc2cccc(F)c2S1(=O)=O (centres undefined) | -19.9 | 2904
15 | CC(C)C(OC(=O)C1=Cc2ccccc2OC1)C(=O)NCC1CCCO1 (centres undefined) | -9.3 | 3089
16 | C/C(O)=C(\C#N)C(=O)Nc1cc(Br)ccc1Br | -24.8 | 5682
17 | CC(C)C[C@H]1CN=C(Nc2ccccc2)N1CCc1ccc(F)cc1 | -7.5 | 4163
18 | CCOC(=O)C1CCCN(S(=O)(=O)NC[C@H]2O[C@@H](n3cnc4c(N)ncnc43)[C@H](O)[C@@H]2O)C1 (some centres undefined) | -25.3 | 3839
19 | COC(=O)[C@H]1[C@H]2C[C@@H]3c4[nH]c5cc(OC)ccc5c4CCN3C[C@H]2C[C@@H](OC(=O)c2cc(OC)c(OC)c(OC)c2)[C@@H]1OC | -6.0 | 6111
20 | C=CC[C@H](CC(=O)NCCO)C(=O)N[C@H](COC(=O)[C@@H](CC=C)Cc1ccc(F)cc1)Cc1ccccc1 | -16.9 | 3076

Entries of single compounds from above.
`C=CC[C@H](CC(=O)NCCO)C(=O)N[C@H](COC(=O)[C@@H](CC=C)Cc1ccc(F)cc1)Cc1ccccc1` in the list: PrP 5UTR inh = -16.9; Autofluor counter = 3076
`CCN1C(=O)[C@H]2[C@@H](c3ccc(-c4cc(C(C)=O)cs4)cc3)N3CCCC[C@@]3(C(=O)OC)[C@H]2C1=O` in the list: PrP 5UTR inh = -1.5; Autofluor counter = 3057

Carrying on.
cpd | Molecule | PrP 5UTR inh | Autofluor counter
21 | O=C1C2CCCN2C(=O)N1CCN1CCN(c2cccc(C(F)(F)F)c2)CC1 (centres undefined) | -13.9 | 3842
22 | CCOC(=O)[C@]12Cc3ccsc3[C@H]1N(Cc1ccccc1)C(=O)c1ccccc12 | -4.0 | 4028
23 | C#CCOCCOCCOCCNc1nc(N2CCN(C(=O)[C@H](CCC(=O)O)n3cc([C@@H](N)CCCCN)nn3)CC2)nc(N2CCN(C(=O)[C@H](CCCCN)n3cc([C@@H](N)CC(N)=O)nn3)CC2)n1 | -7.1 | 3954
24 | C[C@H](CO)N1C[C@H](C)[C@@H](CN(C)C(=O)Nc2ccc3c(c2)OCO3)Oc2c(NC(=O)c3ccncc3)cccc2C1=O | -3.8 | 4096
25 | CC1(C)O[C@@H]2[C@H](O1)[C@@H](CO)O[C@H]2n1cnc2c(N)ncnc21 | -30.8 | 4300
26 | CC(C)C[C@@H](CN1CCC[C@@H]1CN1C(=O)C(=O)NC[C@@H]1Cc1ccccc1)N1C[C@H](Cc2ccc(O)cc2)N(CCc2ccccc2)C(=O)C1=O | -16.1 | 3744
27 | Oc1ccc(C=NN=C2c3ccccc3-c3ccccc32)c(O)c1 | -17.8 | 3699
28 | COc1cc(Br)cc(Br)c1OCC(=O)N/N=C/c1c(C)n(C)n(-c2ccccc2)c1=O | -21.2 | 5093
29 | O=c1c(O)c(-c2ccc(O)c(O)c2)oc2cc(O)ccc12 | -15.0 | 5603
30 | CCOC(=O)C1C(OC(=O)c2ccccc2)CC2CCC1N2C (centres undefined) | 69.6* | 6924
31 | C/C(=N\NC(=O)c1nn(C)c(C)c1Br)c1ccc(NC(=O)C2CCCC2)cc1 | -30.0 | 5272
32 | N[C@H](CO)Cc1ccccc1 | 8.1 | 6014
33 | Nc1ccc2cc3[nH]c4cc(N)ccc4c3nc2c1 | -37.4 | 2397
34 | Cc1ccc(S(=O)(=O)c2ccc([N+](=O)[O-])o2)cc1 | -20.4 | 3530
35 | CC(=O)N[C@@H](CS)C(=O)O | -2.0 | 6081
36 | CS(=O)(=O)N1Cc2cnnn2-c2ccccc2C1C#N (centres undefined) | -21.3 | 3954
37 | CC(C)C[C@@H](CO)N(Cc1ccccc1)S(=O)(=O)N(Cc1ccccc1)[C@@H](CO)CC(C)C | -11.8 | 4052
38 | COc1ccc(SC[C@H](C)CN2CC[C@H](NC(=O)OCc3ccccc3)CCC2=O)cc1 | 1.3 | 3048
39 | CCC/C(C#CCCN1C(=O)c2ccccc2C1=O)=C1/c2ccccc2C(=O)N1c1ccccc1 | -12.2 | 3824
40 | C[C@H](CO)N1C[C@H](C)[C@@H](CN(C)C)Oc2c(NC(=O)c3ccncc3)cccc2C1=O | -19.4 | 3567
41 | CN(C(=O)Nc1cccc([N+](=O)[O-])c1)c1ccccc1 | -17.6 | 3587
42 | COc1ccc(C2=CC(=O)C[C@H](c3ccc(OC)c(OC)c3)C2)cn1 | -12.3 | 4079
43 | O=C(O)C1OC1(c1ccccc1Cl)c1ccccc1Cl (centres undefined) | -25.1 | 3994
44 | CC(C)C[C@@H](C)C(=O)N(Cc1ccccc1)c1ccccc1 | -8.4 | 3791
45 | CCN(C(=O)CN1CCCCCC1)c1c(N)n(Cc2ccccc2)c(=O)[nH]c1=O | -2.8 | 3398
46 | CCN(CC)CCn1c2ccccc2c(=O)c2c(O)ccc(O)c21 | -13.0 | 2791
47 | Cc1nc2c(nc1C)C(=O)c1ccccc1C2=O | 11.3 | 4137
48 | C[Se]C[C@@H](N)C(=O)O | -21.1 | 5336
49 | COC(=O)c1ccc(NCc2cc(O)ccc2O)cc1O | -25.6 | 3846
50 | CC(C)[C@H](CN1CCC[C@H]1CN1C(N)=NC[C@H]1C(C)C)N1C[C@@H](Cc2ccccc2)N(CCCC2CCCC2)C1=N | -1.9 | 3766
51 | C[C@H](O)C(=O)C1=Nc2c(nc(N)[nH]c2=O)NC1 | -20.1 | 5885
52 | O=C1N[C@@H](c2ccccc2)COC(=O)[C@H](Cc2ccc(F)cc2)C/C=C\C[C@@H]1CC(=O)N(CCO)Cc1ccccc1 | -20.4 | 3989
53 | CCCn1c(/C=N/Nc2nc3ccccc3[nH]2)nc2ccccc21 | 2.5 | 1743
54 | CC(=O)O[C@H]1C[C@@H]2OC3C=C(C)CCC3(C)[C@@]1(C)[C@@]21CO1 (some centres undefined) | 72.0* | 3047
55 | Cn1ncc2c(=O)[nH]nnc21 | -20.0 | 3661
56 | COc1cc(C2c3cc4c(cc3OC(NNC(N)=S)C2C)OCO4)cc(OC)c1OC (centres undefined) | 34.0 | 2921
57 | CCN1C[C@@H]2[C@@H]3C(=O)N(Cc4ccccc4)C(=O)[C@@H]3[C@](C)(C1=O)N2C(=O)c1ccccc1 | -11.6 | 3969
58 | O=C(CNC(=O)c1ccccc1F)NCc1ccccn1 | -9.6 | 4011
59 | C=C[C@]1(C)C[C@H]1[C@H](NP(=O)(c1ccccc1)c1ccccc1)c1ccccc1 | -17.0 | 3122
60 | CCC(C(=O)NC1CCCC1)n1c2ccccc2c2nc(=O)cc(C)n21 (centres undefined) | -19.2 | 4927
61 | CCN(CC)C(=O)c1[nH]cnc1C(=O)N[C@@H](C)c1ccccc1 | -5.1 | 3941
62 | COC(=O)c1cc(C)c(C)cc1NC1OC(CO)C(O)C1O (centres undefined) | -23.0 | 3001
63 | O=C1NC[C@H](Cc2ccccc2)N(C[C@H]2CCCN2C[C@H](Cc2ccc(O)cc2)N2C[C@H](Cc3ccc(O)cc3)N(CC3CCCCCC3)C(=O)C2=O)C1=O | -16.3 | 3945
64 | Cc1ccccc1Cn1c2ccccc2c2cnn(CC(=O)N3CCN(c4ccccc4)CC3)c(=O)c21 | -8.5 | 5747
65 | CNC[C@@H]1Oc2ccc(NS(=O)(=O)c3ccc(OC)cc3)cc2CC(=O)N([C@H](C)CO)C[C@@H]1C | -25.6 | 3821
66 | O=C(C[C@@H]1C/C=C\CC[C@H](Cc2ccc(F)cc2)C(=O)OC[C@@H]2CCCN2C1=O)NCCO | -22.2 | 3853
67 | CC12CCC3C(CCC4(O)CC(O)CCC34C=NO)C1(O)CCC2C1=COC(=O)C1 (centres undefined) | 88.7* | 3652
68 | COC(=O)C1=C(c2ccccc2OCc2ccccc2)C[C@@H]2CC[C@H]1N2C(=O)NCc1cccc(C(F)(F)F)c1 | -15.5 | 3598
69 | C[C@@H]1COC(=O)[C@@H](NC(=O)OCC2c3ccccc3-c3ccccc32)C/C=C\C[C@@H](CC(=O)N(CCO)Cc2ccccc2)C(=O)N1 | -28.9 | 3279
70 | C#CCOCCOCCOCCNc1nc(N2CCN(C(=O)Cn3cc(CCCN=C(N)N)nn3)CC2)nc(N2CCN(C(=O)[C@H]([C@@H](C)CC)n3cc(CCCCN)nn3)CC2)n1 | -9.0 | 4224

(further entries)
cpd | Molecule | PrP 5UTR inh | Autofluor counter
71 | CC(C)(C)OC(=O)NCCCC[C@H](NC(=O)c1[nH]cnc1C(=O)N[C@@H](Cc1ccccc1)C(=O)OCc1ccccc1)C(=O)OC(C)(C)C | -14.4 | 3863
72 | C[C@H](CO)N1C[C@H](C)[C@@H](CN(C)S(C)(=O)=O)Oc2ccc(NC(=O)c3ccncc3)cc2C1=O | -25.2 | 3641
73 | Fc1ccc(-c2ccc3c(c2)C2CC3CCN2)cc1 (centres undefined) | -5.1 | 3297
74 | O=C(C[C@@H]1C/C=C\CCCC(=O)OC[C@@H](c2ccccc2)NC1=O)NCCO | -14.3 | 3409
75 | NC(N)=NC(=O)c1nc(Cl)c(N2CCCCCC2)nc1N | 2.7 | 4257
76 | FC(F)(F)c1cc(CCN2CCNC[C@@H]2c2ccccc2)cc(C(F)(F)F)c1 | 36.4 | 5121
77 | OCC[C@H]1C[C@@H](O)[C@H](O)[C@]2(Cc3ccccc3CCO2)O1 | -22.6 | 3505
78 | CC(=O)c1cccc(N2C(=O)CC(N3CCN(S(=O)(=O)c4ccc(Cl)cc4)CC3)C2=O)c1 (centres undefined) | -29.2 | 3800
79 | O=C(N/N=C/c1ccc2ncccc2c1)c1ccco1 | -38.0 | 2031
80 | CCOc1ccccc1CNc1ncnc2ccc(-c3c(C)noc3C)cc12 | -6.9 | 4385
81 | N#CC1=C(N)Oc2cc(N)ccc2C1c1ccccc1 (centres undefined) | -22.2 | 4232
82 | O=C(C[C@H]1C/C=C\C[C@H](Cc2ccc(F)cc2)C(=O)OC[C@@H]2CCCN2C1=O)N[C@H](CO)Cc1ccccc1 | 2.9 | 2963
83 | CC1CCCN(CC(=O)Nc2cc(S(=O)(=O)N3CCOCC3)ccc2N2CCCC2)C1 (centres undefined) | -23.7 | 4082
84 | Cc1c(N)cccc1Cl | -3.4 | 4263
85 | COc1ccc2c(c1)[C@H]1[C@H](CO2)[C@H](c2ccccc2)[C@]2(C)C(=O)Nc3ccccc3C(=O)N12 | -30.6 | 4316
86 | Cn1sccc1=O | -27.0 | 6257
87 | O=C(OCC(O)C(O)C(O)COC(=O)c1ccccc1)c1ccccc1 (centres undefined) | -28.5 | 5111
88 | CC(C)C[C@H](NC(=O)c1nc[nH]c1C(=O)N[C@@H](CCCCN)C(=O)OC(C)(C)C)C(=O)OC(C)(C)C | 1.7 | 4101
89 | CCCCCCSc1ccc(-c2nc3cnccn3c2NCCCC)cc1 | -1.4 | 4519
90 | CC(=O)Nc1ccc(S(=O)(=O)N(C)CC(=O)NNC(=O)Cc2nc3ccccc3n2C)cc1 | -39.9 | 3274
91 | COC(=O)NC(=S)Nc1ccccc1NC(=S)NC(=O)OC | -24.1 | 5997
92 | CC(C1=C(CCN(C)C)Cc2ccccc21)c1ccccn1 (centres undefined) | -19.1 | 3553
93 | CCCCN1C(Nc2ccccc2)=NC[C@@H]1C | -2.2 | 3929
94 | Fc1cccc(CCN2CCNC[C@@H]2CC2CCCCC2)c1 | -15.0 | 4017
95 | C[C@@H]1ON(C)[C@H]2C[C@H]3c4cc(N5CCOCC5)ccc4CCN3C(=O)[C@@H]12 | -16.2 | 3552
96 | COc1cc(/C=C/C(=O)/C=C(O)/C=C/c2ccc(O)c(OC)c2)ccc1O | -10.2 | 4422
97 | COc1cccc(NC(=O)CN(C)C(=O)c2cccc(S(=O)(=O)N3CC4(C)CC3CC(C)(C)C4)c2)c1 (centres undefined) | 4.9 | 3824
98 | COc1cc(/C=C/C(O)=C/C(=O)/C=C/c2ccc(O)cc2)ccc1O | -24.8 | 4392
99 | O=C(Nc1ccn(CCCNCc2ccccn2)c(=O)n1)OCc1ccccc1 | 1.4 | 4250
